Screening results (PubChem)
VACV mCherry inh – inhibitors of vaccinia virus infection (mCherry reporter signal) | Vaccinia virus mCherry reporter infection, fluorescence; about a quarter of the inactives have no number | Potency, µM (titrated, usually from 36.5 µM), for inactives: at the highest dose activity change, negative = inhibition, hits mostly inhibitors | 310,000 tested, 0.63% active | AID 720579; active = well fitted inhibition curve with a large enough effect; inconclusive = small, poorly fitted or top-dose-only effect; inactive = no such curve, though single readings can be large or run the other way; tested in A549 cells; note: nearly all actives have a fitted effect of over 35% in size; inactives centre near -10
Vaccinia Venus – vaccinia inhibition (Venus reporter). 330,000 tested, 0.46% active. Vaccinia virus Venus reporter expression, fluorescence. Potency, µM (titrated, usually from 36.5 µM), for the others: top-dose activity change, negative = inhibition, hits mostly inhibitors; active means well fitted inhibition curve with a large enough effect; inconclusive means small, poorly fitted or top-dose-only effect; inactive means no such curve, though single readings can be large or run the other way; tested in A549 cells; note: nearly all actives have a fitted effect of over 30% in size; inactives centre near -10
The depositor's hits bear a star; i = inactive; u = inconclusive; x = not tested or not shown; [ ] = dose if it differs, or a comment. % is set by controls: 0 for no effect and ±100 for the full control effect; potency is the fitted concentration of half-maximal effect.

Order of values: VACV mCherry inh, Vaccinia Venus
1. CCCc1[nH]nc2c1C(c1ccc(O)cc1OCC)C(C#N)=C(N)O2 (configuration not stated)
    x, -25%
2. COCCNC(=S)NC1CC2CCCC(C1)N2Cc1ccco1 (configuration not stated)
    -10%, -4%
3. C=CCO/N=C/C1C(=O)CC(C)(C)CC1=O
    -10%, -16%
4. CCCCn1c(C(C)NC(=O)c2cccs2)nc2ccccc21 (configuration not stated)
    -9%, -6%
5. Cn1c(=O)cc(SCC(=O)N2CCOCC2)c2ccc(Cl)cc21
    -7%, -5%
6. CCN(Cc1cnn(C)c1)C(=O)CC1C(=O)NCCN1Cc1cccc(OC)c1OC (configuration not stated)
    i, 7%
7. Cc1cc(Nc2ccccc2Cl)n2nc(-c3ccco3)nc2n1
    -12%, -13%
8. COc1cc2cc(CN(Cc3cccnc3)C(=O)Nc3ccccc3)c(=O)[nH]c2cc1OC
    -16%, -15%
9. O=C(NC1CCCCC1)C(c1ccncc1)N(C(=O)c1csnn1)c1ccccc1 (configuration not stated)
    10%, -7%
10. COC(=O)C1CCN(c2cc(=O)n(Cc3ccc(F)cc3)c(=O)[nH]2)CC1
    -13%, -16%
11. CC(CCC(C)OC(=O)c1ccccc1C(=O)O)OC(=O)c1ccccc1C(=O)O (configuration not stated)
    -9%, 1%
12. CC(=O)c1ccc(OCC(O)CN2CCN(S(=O)(=O)c3c(C)cc(C)cc3C)CC2)cc1 (configuration not stated)
    u, -23%
13. O=c1ccc2cc(S(=O)(=O)Nc3ccc(Br)cc3)ccc2o1
    -1%, -15%
14. O=c1c(S(=O)(=O)c2ccccc2)cn(Cc2ccc(F)cc2)c2cc(N3CCCC3)c(F)cc12
    -2%, -4%
15. Cc1cc(C)cc(OC(=O)CCN2C(=O)c3ccccc3C2=O)c1
    -14%, -15%
16. COC(=O)c1c(C)[nH]c(C(=O)CSc2ncnc3sc(-c4ccccc4)cc23)c1C
    -5%, 1%
17. O=C(c1ccc(Oc2ccc([N+](=O)[O-])cc2)cc1)N1CCCCCC1
    i, -13%
18. COc1cccc(CNC(=O)CN2C(=O)CCn3nc(-c4cn(C)c5ccccc45)cc32)c1OC
    -16%, 10%
19. COc1cc(/C=N/NC(=O)c2ccncc2)ccc1OCCN1CCCCC1
    -2%, -4%
20. COc1cc(/C=N/NC(=O)c2cccnc2)ccc1OS(=O)(=O)c1ccc(C)cc1
    i, 0%
21. COc1ccccc1N1CCN(S(=O)(=O)CCNC(=O)C2CCCCC2)CC1
    i, -15%
22. O=C(Nc1ccon1)c1ccc(OC2CCCC2)cc1
    -6%, -6%
23. Cc1nc2ncnn2c(C)c1CCC(=O)NCc1ccc(Cl)cc1
    -3%, -2%
24. CC(C)(C)NC(=O)c1ccc2nsnc2c1
    i, -10%
25. CCn1nc(C)c(CNC(=O)Nc2ccc3c(c2)OCO3)c1C
    -14%, 3%
26. Fc1ccc(Nc2nc(-c3cccc(Cl)c3)c3c(n2)-c2ccccc2OC3)cc1
    -12%, -5%
27. COc1cccc(-c2sc3ccc(OC)cc3c2C#CC(C)(C)O)c1
    u, u
28. Cc1ccc(-c2nc(S(=O)(=O)c3ccc(C)cc3)c(SCC(N)=O)o2)cc1
    u, -9%
29. Cc1cccc(NC(=O)C2CCCN2/C=C/C(=O)C(F)(F)F)c1C (configuration not stated)
    -10%, -4%
30. O=C(NCCCN1CCOCC1)c1ccc(CSCc2cccc(Cl)c2)o1
    -1%, 16%
31. Cc1cc(C)n(CC(=O)c2ccc(Cl)cc2)n1
    i, 0%
32. O=C(O)c1c2c(nc3ccccc13)/C(=C/c1ccccc1[N+](=O)[O-])CCC2
    0%, -3%
33. COc1cccc(CN(C)C(=O)CC[C@H]2O[C@@H](n3ccc(=O)[nH]c3=O)[C@H](O)[C@@H]2O)c1
    4%, 13%
34. Cc1ccc(-n2nnnc2CNC(=O)c2ccccc2)cc1C
    -12%, -6%
35. CC(=O)Oc1ccc(C(=O)Nc2ccc3c(c2)OCCO3)cc1
    i, -6%
36. C#CCCOC(=O)N1C2=NC(C(=O)OC)=C(C(=O)OC)[C@@H]3N(C)c4ccc(OC)cc4[C@]23C[C@H]1C(=O)OC
    -16%, -26%
37. C/C(CC(=O)NC1CCCCC1)=N\NC(=O)Cc1ccc(-c2ccccc2)cc1
    -3%, -11%
38. COc1ccc(N2CCN(C(=O)COC(=O)c3ccco3)CC2)cc1
    -1%, 4%
39. O=c1[nH]c(CN2CCCCC2)nc2ccccc12
    x, -11%
40. O=C1C=CN(Cc2ccccc2)C(c2ccccc2)C1 (configuration not stated)
    -1%, -4%
41. O=C(CCC1CC(=O)Nc2ccccc21)NCc1cccnc1 (configuration not stated)
    -15%, -2%
42. O=C(O)CCCC(=O)N1CCN(C(c2ccccc2)c2ccccc2)CC1
    i, -5%
43. CC(=O)N1CCc2cc(CNC(=O)Nc3ccc(Br)c(C)c3)ccc21
    -11%, 0%
44. CCn1c(=O)c2c3c(sc2n2c(SCc4ccc(F)cc4)nnc12)CCCC3
    -12%, -3%
45. O=C(O)Cn1c(=O)c(-c2ccccc2)nc2ccccc21
    i, 0%
46. CS(=O)(=O)N(CC(=O)N1CCN(c2ccccc2)CC1)C1CCCCC1
    -15%, -15%
47. CC(C)c1ccc(NC(=O)CSC2=Nc3ccccc3C3=NC(CCC(=O)NC4CCCCC4)C(=O)N23)cc1 (configuration not stated)
    -12%, -15%
48. Cc1ccccc1OCc1nnc(SCC(=O)NCc2ccco2)n1C
    0%, 8%
49. O=C(NCCc1ccccc1)C(=O)NCC1CCCN1S(=O)(=O)c1cccs1 (configuration not stated)
    u, -30%
50. Nc1ncnc2c1ncn2[C@@H]1O[C@H](C(=O)N2CCN(c3nc4ccccc4o3)CC2)[C@@H](O)[C@H]1O
    46%[activator], -5%
51. COC(=O)[C@H](C(C)C)n1c(C)c(C(C)=O)c(C(C)=O)c1C
    i, -9%
52. CCCCn1c(SCC(=O)NCc2ccco2)nc2ccccc2c1=O
    i, -10%
53. CC(=Nc1ccc(C)c(C)c1)C1=C(O)CSC1=O
    x, 1%
54. COc1cccc(CNC(=O)CCn2c(=O)c3cccn3c3ccc(F)cc32)c1OC
    8%, -1%
55. O=C(NC1CC1)c1ccc(CS(=O)c2ccccc2)o1 (configuration not stated)
    -5%, -4%
56. C=CCNc1nc(NC2CCN(C)CC2)c2cc(OC)c(OC)cc2n1
    -23%, u
57. CCOc1ccc(NC(=S)/C(=C(\[O-])c2ccc(C)c([N+](=O)[O-])c2)[n+]2ccccc2)cc1
    x, -16%
58. COc1ccccc1-n1c(CNc2ccc(F)cc2)nnc1SCC(=O)Nc1cc(C)on1
    x, -14%
59. O=c1c2c(nc3cc(-c4ccc(Br)cc4)[nH]n13)CCCC2
    -15%, -17%
60. CCN(CC(=O)NCc1cccs1)C(=O)/C=C/c1ccc(Cl)c(Cl)c1
    i, -20%

Of the compounds above, 7 contain an NH in an aromatic ring:
Order of values: VACV mCherry inh, Vaccinia Venus
1. CCCc1[nH]nc2c1C(c1ccc(O)cc1OCC)C(C#N)=C(N)O2 (configuration not stated)
    x, -25%
8. COc1cc2cc(CN(Cc3cccnc3)C(=O)Nc3ccccc3)c(=O)[nH]c2cc1OC
    -16%, -15%
10. COC(=O)C1CCN(c2cc(=O)n(Cc3ccc(F)cc3)c(=O)[nH]2)CC1
    -13%, -16%
16. COC(=O)c1c(C)[nH]c(C(=O)CSc2ncnc3sc(-c4ccccc4)cc23)c1C
    -5%, 1%
33. COc1cccc(CN(C)C(=O)CC[C@H]2O[C@@H](n3ccc(=O)[nH]c3=O)[C@H](O)[C@@H]2O)c1
    4%, 13%
39. O=c1[nH]c(CN2CCCCC2)nc2ccccc12
    x, -11%
59. O=c1c2c(nc3cc(-c4ccc(Br)cc4)[nH]n13)CCCC2
    -15%, -17%

(listing goes on)
Order of values: VACV mCherry inh, Vaccinia Venus
61. CNC(=S)Nn1cnc2ccccc21
    -17%, -14%
62. O=C(/C=C/c1ccccc1)CC(O)(c1ccccc1)C(F)(F)F (configuration not stated)
    -2%, -16%
63. CSc1ccccc1NC(=O)Nc1ccc(Cl)cc1
    -2%, -12%
64. COc1ccc(CN(C)C(=O)c2cccc(NS(=O)(=O)c3ccccc3)c2)c(OC)c1
    u, -22%
65. C=C(C)Cn1c(NCCOC)nc2c1c(=O)[nH]c(=O)n2C
    -20%, -10%
66. COc1cc2c(cc1OC)CN(C(=O)CCNS(=O)(=O)c1ccc(Br)cc1)CC2
    -21%, -27%
67. COc1cccc(C(=O)Nc2nnc(SCC(=O)NC3CC3)s2)c1
    i, -5%
68. CN(C)c1cc(NC(=O)CN2CCOCC2)c2ccccc2n1
    -15%, -11%
69. N#Cc1ccc(NC(=O)Cn2c3[n+](c4ccc(C(F)(F)F)cc42)CCCCC3)cc1
    0%, -4%
70. CCN(CC)S(=O)(=O)c1ccc(NCC2COc3ccccc3O2)c([N+](=O)[O-])c1 (configuration not stated)
    i, -25%
71. COc1ccc(NC(=O)COC(=O)C2C3CC4OC(=O)C2C4C3)cc1 (configuration not stated)
    -15%, -8%
72. CCOc1ccc(NC(=O)CN2C(=O)C(C)SC(C)C2=O)cc1 (configuration not stated)
    0%, -8%
73. O=C(NCCc1ccc(Cl)cc1)c1ccc(S(=O)(=O)N2CCCC2)cc1
    u, -18%
74. COc1ccccc1CC(=O)c1ccc(OCc2ccccc2)cc1
    -5%, -20%
75. Cc1ccc(N=C2NC(=O)CC(C(=O)Nc3cc(C(F)(F)F)ccc3Cl)S2)cc1 (configuration not stated)
    0%, -2%

(next part)
No. | Compound | VACV mCherry inh | Vaccinia Venus
76 | O=C1N[C@H](Cc2c[nH]c3ccccc23)COC(=O)[C@H](Cc2ccc(F)cc2)C/C=C\C[C@H]1CC(=O)N(CCO)Cc1ccccc1 | i | -17%
77 | COc1cc(F)cc(-c2ccc3c(c2)c(-c2cccs2)c(-c2cc(OC)cc(OC)c2)n3C)c1 | -12% | -6%
78 | Cc1cc2c(cc1S(=O)(=O)CCC(=O)N1CC(C)CC(C)C1)OCC(=O)N2 (configuration not stated) | i | -16%
79 | Nc1cccc(C(=O)OCC(=O)c2ccccc2)c1 | i | 2%
80 | COc1ccc(-n2nnnc2/C=C\Nc2ccc(C)cc2)cc1 | i | -22%
81 | CN(C(=O)COC(=O)c1ccccc1Cc1ccccc1)c1c(N)n(Cc2ccccc2)c(=O)[nH]c1=O | -8% | -9%
82 | CS(=O)(=O)N(CCc1ccccc1)CC(=O)N1CCCC1 | i | -5%
83 | CCOc1ccc(CNC(=O)c2sc3ncnc(N(C)C4CCCCC4)c3c2C)cc1 | -9% | -11%
84 | COc1ccc(C(CC(=O)N2CCCC(C)C2)c2c(O)cc(OC)cc2OC)cc1 (configuration not stated) | i | -26%
85 | CC(=O)Nc1cc(-c2ccccc2N(C)C)cn2c(-c3ccccc3)cnc12 | i | -9%
86 | COc1ccc(S(=O)(=O)NCC2CCCN(C(=O)c3occc3C)C2)cc1 (configuration not stated) | i | -7%
87 | O=C(Nc1cccc(C(F)(F)F)c1)c1cc2nc(-c3ccc4c(c3)OCO4)cc(C(F)(F)F)n2n1 | -3% | 7%
88 | Clc1cccc(Nc2ncnc3c2cnn3-c2ccccc2)c1 | u | u
89 | O=C(NCCSc1ccccc1)c1ccccc1Cl | -15% | -15%
90 | CCCCCCCCC(=O)N/N=C/c1ccccn1 | -6% | -4%
91 | CCOc1ccc(C(=O)Cn2cnc3ccccc3c2=O)cc1 | -9% | 0%
92 | COc1cccc(NC(=O)c2nnn(CCc3ccccc3)c2N)c1 | -14% | -7%
93 | O=C(COc1ccccc1C(=O)Nc1ccccc1)c1ccc(Br)cc1 | -7% | 6%
94 | O=C(Nc1cc(=O)[nH]c2nc(-c3ccccc3)nn12)c1ccccc1Cl | i | -7%
95 | Cn1/c(=N/N=C/c2ccccn2)sc2ccccc21 | u | -25%
96 | CC(C)(C)NC(=O)C(c1cccs1)N(Cc1ccco1)C(=O)c1csnn1 (configuration not stated) | -9% | -11%
97 | CN1CCN(CCCCOc2ccccc2-c2ccccc2)CC1 | i | -17%
98 | Cc1ccc(/C=N/NC(=O)C(C)Oc2ccccc2[N+](=O)[O-])s1 (configuration not stated) | -4% | -10%
99 | CC(Sc1nnc(C2CC2)n1C1CC1)C(=O)Nc1ccccc1C#N (configuration not stated) | i | -6%
100 | N=C1C(c2nc3ccccc3s2)=C(O)CN1Cc1ccco1 | u | -21%
101 | N#Cc1ccc(N2C(=O)[C@@H]3C(C(=O)c4cnccn4)=NN[C@@H]3C2=O)cc1 | i | -2%
102 | CC(=O)Nc1cc(-c2ccccc2)cn2c(-c3ccc(F)c(Cl)c3)cnc12 | -7% | 8%
103 | CC(Oc1ccccc1)C(=O)N1CCN(S(=O)(=O)c2ccc(OC(F)(F)F)cc2)CC1 (configuration not stated) | i | -20%
104 | Cc1ccc(S(=O)(=O)NN=C2CCc3ccccc32)cc1 | i | 6%
105 | O=C(c1cnc2sccn2c1=O)N(Cc1ccccc1)c1ccccn1 | 5% | -6%
106 | O=S(=O)(Nc1ccccc1)c1ccc(NS(=O)(=O)c2c(F)cccc2F)cc1 | -7% | -5%
107 | O=C(CCCN1C(=O)CCC1=O)Nc1ccc2c(c1)OCCO2 | -12% | -4%
108 | O=C(COC(=O)c1ccccc1O)NCc1ccc2c(c1)OCO2 | i | -8%
109 | Cc1cc(C)c(C)c(OCC(=O)O/N=C(\N)c2ccccn2)c1 | x | -18%
110 | COc1ccc(CCNC(=O)CSc2nc(=O)[nH]c3c2CCC3)cc1OC | i | -5%
111 | CC(=O)Oc1c(S(=O)(=O)c2ccc(C)cc2)c(C)nn1-c1ccccc1 | x | -6%
112 | COc1cc(C(=O)OCC(=O)NC2CCCC2)cc(OC)c1OC | -6% | -9%
113 | CNc1cc(CS(=O)c2ccccc2)nc(-c2ccccc2)n1 (configuration not stated) | x | 4%
